Arbovirus inh = arbovirus infection inhibition; AID 1251; actives 0.37% (n = 200,000); arbovirus infection cell-based antiviral screen; inhibition, % at 10 µM;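 active = inhibition from about 30%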;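 also: bluetongue infection of BSR cells; cell survival read as ATP light after 72 h; 0% = infected wells without compound and 100% = uninfected wells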
Mtb betalactam = beta-lactam sensitization of Mtb H37Rv | M. tuberculosis H37Rv growth with meropenem, percent inhibition; hits of this screen are not shown here | actives 0.27% (n = 330,000) | inhibition, % at 25 µM;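 active = about 74% or more and at least 40 points above the plate without the antibiotic, then above 30% in a dose series; inconclusive = first-round hits that could not be retested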;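 also: growth measured after seven days incubation then overnight dye step; 0% = bacteria only wells and 100% = bacteria with antibiotic; twin plates without the antibiotic show which effects depend on it; some results filed as inactive read as strong as hits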
YopH inh = blocks Yersinia enterocolitica YopH tyrosine phosphatase | fluorescence Ex485/Em525 | inhibition, %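 (about 10 µM by stock and volumes)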 | actives 0.16% (n = 140,000);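 active = inhibition of 50% or more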;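 also: controls were vehicle for no effect and minimum signal wells for full effect; inactives centre near -20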
Mtb H37Rv = M. tuberculosis H37Rv growth inhibitors, H37Rv strain (AID 1626); inhibition, % at 10 µM; hits with a dose series show IC50 in µM; M. tuberculosis H37Rv growth inhibition; higher % means a stronger effect; actives 0.95% (n = 220,000);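 active = confirmed in a dose series; inconclusive = inhibition above 80% but not taken into the dose series; inactive = below 80% or under 30% at every dose of the series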;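 also: bacteria incubated seven days before Alamar blue readout; 0% = bacteria only wells and 100% = bacteria with antibiotic wells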
RecA splice inh = blocks M. tuberculosis RecA intein splicing; AID 2221; cell-free RecA intein splicing, fluorescence; inhibition, %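 (about 9 µM by stock and volumes)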; actives 0.75% (n = 290,000); P9WHJ3; in the data active = inhibition above about 30%; inconclusive = no clear call, values can overlap the other calls;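 also: 0% = vehicle wells and 100% = reference inhibitor control wells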
Target sequence (P9WHJ3 whole entry, looked up, canonical isoform): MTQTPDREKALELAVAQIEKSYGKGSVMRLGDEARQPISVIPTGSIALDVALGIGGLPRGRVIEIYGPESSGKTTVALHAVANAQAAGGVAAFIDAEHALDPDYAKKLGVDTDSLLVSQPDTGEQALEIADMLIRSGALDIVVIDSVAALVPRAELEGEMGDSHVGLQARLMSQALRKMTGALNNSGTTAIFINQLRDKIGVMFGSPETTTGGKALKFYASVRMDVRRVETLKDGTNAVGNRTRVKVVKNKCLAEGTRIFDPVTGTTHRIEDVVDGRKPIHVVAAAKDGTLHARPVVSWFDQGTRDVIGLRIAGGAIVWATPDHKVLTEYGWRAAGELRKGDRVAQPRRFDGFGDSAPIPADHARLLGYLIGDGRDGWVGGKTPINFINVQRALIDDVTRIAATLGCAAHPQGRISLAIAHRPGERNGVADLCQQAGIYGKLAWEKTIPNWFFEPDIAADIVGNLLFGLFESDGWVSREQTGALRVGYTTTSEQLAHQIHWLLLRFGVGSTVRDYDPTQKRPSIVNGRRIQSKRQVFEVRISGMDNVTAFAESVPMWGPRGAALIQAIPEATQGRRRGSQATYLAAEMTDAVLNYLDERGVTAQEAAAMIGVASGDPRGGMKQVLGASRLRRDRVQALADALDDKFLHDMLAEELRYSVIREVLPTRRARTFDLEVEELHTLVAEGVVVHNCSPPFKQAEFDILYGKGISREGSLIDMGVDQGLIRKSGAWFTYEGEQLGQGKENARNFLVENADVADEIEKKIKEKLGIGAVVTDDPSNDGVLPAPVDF
Active calls of the source: *; ? = inconclusive; / = no result given. A portion of the library; count on the stated rates, not on these rows.

SMILES	Arbovirus inh	Mtb betalactam	YopH inh	Mtb H37Rv	RecA splice inh
Cc1ccccc1NC(=O)c1c(F)c(F)c(F)c(F)c1F	14	-9	14	8%	1.3
COc1ccccc1-c1cc(-c2ccccc2)nc(SC(C(N)=O)c2ccccc2)c1C#N (centres undefined)	-6	-15	-34	-2%	-3.1
Cc1cc(N2CCCC2=O)cc(C)c1S(=O)(=O)NCCOc1ccc(C(C)(C)C)cc1	-13	-3	-5	5%	3.3
O=c1c(-c2ccc3c(c2)OCCO3)c(C(F)(F)F)oc2cc(O)cc(O)c12	20	-27	-20	-7%	3.5
Cc1ccc(/C=N/OC(=O)c2c(C)noc2-c2snnc2C)cc1	/	2	/	14%	-2.2
O=C(CSc1nnc2scc(-c3ccccc3)n12)N1CCN(Cc2ccccc2)CC1	-8	10	-22	-2%	2.9
Cc1cc(C)c2ccc3c(C)c(C)n(C)c3c2n1	3	98	/	15%	-7.2
COc1ccc(N=NC2=C(O)CC(C)(C)CC2=O)c(OC)c1	-24	-2	12	3%	-2.3
CC(=O)N1CCN(c2ccc(NC(=S)NC(=O)COc3ccc(C(C)(C)C)cc3)cc2)CC1	6	71	-15	-11%	0.4
Cc1cc(=O)n2nc(N3CCC(C(=O)NCc4ccccc4F)CC3)sc2n1	/	4	/	/	1.3
Cc1ccnc(NC(=O)C(C)n2cc([N+](=O)[O-])cn2)c1 (centres undefined)	9	4	/	1%	-2.4
Cc1cc(=O)[nH]c(SCC(=O)Nc2ccc(F)c([N+](=O)[O-])c2)n1	9	-18	/	-5%	-2.5

Looked up above.
In Mtb betalactam, COc1ccc(N=NC2=C(O)CC(C)(C)CC2=O)c(OC)c1 shows -2
In Mtb H37Rv, Cc1ccc(/C=N/OC(=O)c2c(C)noc2-c2snnc2C)cc1 shows 14%
In RecA splice inh, Cc1ccccc1NC(=O)c1c(F)c(F)c(F)c(F)c1F shows 1.3
In Arbovirus inh, O=C(CSc1nnc2scc(-c3ccccc3)n12)N1CCN(Cc2ccccc2)CC1 shows -8

4 entries from above, field by field.
Cc1ccc(/C=N/OC(=O)c2c(C)noc2-c2snnc2C)cc1
  Arbovirus inh: /
  Mtb betalactam: 2
  YopH inh: /
  Mtb H37Rv: 14%
  RecA splice inh: -2.2

O=C(CSc1nnc2scc(-c3ccccc3)n12)N1CCN(Cc2ccccc2)CC1
  Arbovirus inh: -8
  Mtb betalactam: 10
  YopH inh: -22
  Mtb H37Rv: -2%
  RecA splice inh: 2.9

Cc1cc(C)c2ccc3c(C)c(C)n(C)c3c2n1
  Arbovirus inh: 3
  Mtb betalactam: 98
  YopH inh: /
  Mtb H37Rv: 15%
  RecA splice inh: -7.2

COc1ccc(N=NC2=C(O)CC(C)(C)CC2=O)c(OC)c1
  Arbovirus inh: -24
  Mtb betalactam: -2
  YopH inh: 12
  Mtb H37Rv: 3%
  RecA splice inh: -2.3

More records follow.
SMILES	Arbovirus inh	Mtb betalactam	YopH inh	Mtb H37Rv	RecA splice inh
COc1ccc(-n2c(=O)c3ccccc3n(CC(=O)NC3CCCC3)c2=O)cc1	4	5	-23	-2%	3.0
CCCN1CCN(CC(=O)Nc2nnc(CC)s2)CC1	/	7	/	/	-0.9
COc1ccc(Nc2cc(Nc3ccc(OC)cc3)ncn2)cc1	/	2	/	/	1.2
COC(=O)[C@@]12CCCN1[C@H](c1ccc(-c3cccc(Cl)c3)c(OC)c1)[C@H]1C(=O)N(C)C(=O)[C@H]12	/	11	/	/	7.5
COC(CN(C)C(=O)C1CCC(CNS(=O)(=O)c2ccccc2)CC1)OC (centres undefined)	/	-5	/	/	-2.5
Cc1oc2cc([N+](=O)[O-])c(O)c([N+](=O)[O-])c2c1C(=O)c1ccc(Cl)cc1	/	-4	/	-8%	37*
Cc1c(O)ccc2c(-c3ccccc3)cc(=O)oc12	/	40	/	/	-4.1
CCN(CC1CCCN(CCc2cccc(OC)c2)C1)C(=O)c1ccoc1C (centres undefined)	/	-3	/	/	-1.2
CCOC(=O)C(NC(C)=O)(Nc1ccc(S(=O)(=O)Nc2ccncn2)cc1)C(F)(F)F (centres undefined)	6	2	-33	4%	-0.6
Cc1c(C)n(C)c2ccc(C(=O)NCCc3ccco3)cc12	/	-5	/	/	1.8
O=c1cc(Cn2ccnc2)c2cc3c(cc2o1)CCC3	-1	-3	-42	3%	-2.6
Cc1cccc(-n2c(C)n[nH]c2=S)c1C	6	-4	-30	-6%	3.1
COc1ccc(C(=O)NC2CCN(C(=S)NCc3ccco3)CC2)cc1	10	-5	-34	-3%	0.5
CCOC(=O)c1ccc(NC(=O)c2ccccc2C)cc1	4	40	-22	60%	-2.2
COc1ccc(CCN(C(=S)Nc2ccccc2)C2CC(=O)N(c3ccccc3)C2=O)cc1 (centres undefined)	10	0	-34	1%	2.2
Cc1ccc2cc(C=O)c(Cl)nc2c1	-2	5	/	-2%	-0.1
Cc1cc(C(=O)NCc2cccnc2)no1	1	-9	-36	-6%	-4.0
C=CCN1C(=O)C(CC(=O)Nc2ccc(OCC)cc2)N(Cc2ccccn2)C1=S (centres undefined)	-5	-6	/	-9%	0.2
CC(=O)[C@@H]1[C@@H]2C(=O)N(c3ccc(F)c(Cl)c3)C(=O)[C@@H]2C2c3ccccc3C=CN21 (some centres undefined)	-4	?	71*	4%	1.8
CCN(CC)CCOc1nc(C)nc2c1oc1ccccc12	13	-13	-34	-2%	-1.9
COc1cccc(-n2c(SC)nnc2-c2cnccn2)c1	-4	-4	-36	-3%	-0.2
O=C(/C=C/c1ccccc1)N(Cc1cccc(Cl)c1)C1CCS(=O)(=O)C1 (centres undefined)	/	-8	/	-6%	-3.0
COc1ccc(/C=N/n2cnc3c(sc(=S)n3-c3ccccc3)c2=O)cc1	/	0	/	/	13
C#CCOCOCC#CCN(CC)CC	4	8	7	2%	-0.5
Cc1ccc(-c2ccc(=O)n(Cc3ccc(F)cc3Cl)n2)cc1	/	8	/	/	-1.0
COC(=O)c1cc(C(=O)c2ccc(Cl)cc2Cl)cn1C	-1	3	-27	2%	3.7
CCOC(=O)/C(C#N)=C/c1c(N2CCN(C)CC2)nc2c(C)cccn2c1=O	/	0	/	/	-13
COc1ccc(Cn2c(O)c(C=Nc3ccccc3)c3ccccc3c2=O)cc1	-12	13	0	9%	1.1
CC1(C)Cc2nc3sc4c(N5CCCC5)nnnc4c3cc2CO1	-3	4	/	-1%	0.7
N=c1c(S(=O)(=O)c2ccc(Cl)cc2)cc2c(=O)n3ccccc3nc2n1CCc1ccccc1	/	59	/	/	-17
CN(C)C(=O)COC(=O)/C=C/c1ccccc1[N+](=O)[O-]	-1	10	16	-6%	-1.5
COCCNC(=O)[C@@H]1CSC2c3ccccc3C(=O)N21 (some centres undefined)	/	1	/	/	-2.1
COc1cc(NC(C(=O)Nc2cccc(C(C)=O)c2)c2ccccc2)cc(OC)c1OC (centres undefined)	0	0	-15	-1%	-2.0
Nc1cc(C(=O)c2ccccc2)ccc1N1CCOCC1	-6	1	-30	11%	1.2
Cc1ccc(NCC(=O)c2ccc([N+](=O)[O-])cc2)cc1	-15	3	/	6%	-3.2
C/C(=N\OC(=O)c1ccc(F)cc1)c1nccs1	0	12	-16	-1%	1.3
COc1cccc2sc(NN)nc12	37*	6	/	7%	-4.1
Cc1nn(CC(=O)OCC(=O)NC(C)c2ccccc2)c(C)c1[N+](=O)[O-] (centres undefined)	12	-4	/	0%	-0.2
COc1cccc(C2=CC(c3cc(OC)ccc3OC)n3nnnc3N2)c1 (centres undefined)	-6	86	-17	/	-3.0
Nc1nnc(SCCCOc2ccc(F)cc2)s1	/	4	/	/	2.2
C=CCn1c(CCNC(=O)c2cccs2)nnc1SCC(=O)Nc1cccc(F)c1	2	-6	-6	2%	/
CC1CC(=O)Nc2ccccc2N1S(=O)(=O)c1ccc(Cl)cc1 (centres undefined)	/	-4	/	-4%	1.8
Cc1ccc(NS(=O)(=O)c2ccc(OCC(=O)N3CCN(C)CC3)cc2)cc1	/	-16	/	/	-4.3
O=C(CNc1cccc(C(F)(F)F)c1)N/N=C/c1cccc(Br)c1	-3	0	-9	-12%	-0.9
O=C(CCNC(=O)C1CCN(S(=O)(=O)c2ccccc2)CC1)NCc1ccccn1	/	-4	/	/	-0.5
CCc1c(C)nc2ncnn2c1N1CCCC(C(=O)NCCc2ccccc2)C1 (centres undefined)	4	-7	-19	-2%	2.9
COc1ccc(OC)c(C2=NO[C@@](CC(=O)O)(C(=O)Nc3ccc4c(c3)OCCO4)C2)c1	/	-4	/	/	-0.6
Cc1cc(C)cc(N(C(=O)c2csnn2)C(C(=O)NC(C)(C)C)c2cccs2)c1 (centres undefined)	-4	0	5	2%	5.3
Cc1ccccc1NC(=O)c1ccccc1	-5	-4	5	-5%	-0.9
Fc1ccc2c(c1)C1C=CCC1C(c1cc3c(cc1Br)OCO3)N2 (centres undefined)	-19	-3	-13	0%	14
CCOC(=O)N1CCN(C(=O)C2CCN(S(=O)(=O)c3ccc(OC)cc3)CC2)CC1	-3	0	/	6%	-0.9
Cc1csc(SCC(=O)NC(C)c2ccc(F)cc2)n1 (centres undefined)	1	7	/	-2%	0.9
CC1CC(C)CN(C(=O)c2ccc(NC(=O)c3ccc(=O)[nH]c3)cc2)C1 (centres undefined)	0	45	-35	/	-0.2
Nn1cc(-c2ccccc2)nc1SCC(=O)NCCc1ccccc1	-4	-13	/	0%	0.4
CCN1CCN(c2cc(C)c3cc(NC(=O)Cc4ccccc4OC)ccc3n2)CC1	-2	0	-39	-4%	-0.4
O=C(O)C(F)(F)S(=O)(=O)O	9	-1	-2	1%	-1.6
Cc1cccc(NC(=O)C2CCN(S(=O)(=O)c3cccc4nsnc34)CC2)c1	-4	-13	/	9%	0.4
Cc1noc(C)c1COC(=O)c1cccnc1SCC(=O)Nc1ccc2c(c1)OCO2	-5	-3	-50	0%	0.8
CCN(C(=O)c1ccc(S(=O)(=O)N(C)C)cc1)C(C)C(=O)Nc1ccc(C)cc1 (centres undefined)	/	-4	/	/	0.0
CC(CCc1ccccc1)NC(=O)CSc1ccccc1 (centres undefined)	0	2	-10	3%	-0.2

(more compounds)
SMILES	Arbovirus inh	Mtb betalactam	YopH inh	Mtb H37Rv	RecA splice inh
CC(C)CCn1nnnc1C(c1ccc(F)cc1)N1CCN(C(=O)c2ccco2)CC1 (centres undefined)	-1	3	-31	-3%	1.8
COc1ccc(NC(=O)c2oc3cc(C)c(C)cc3c2C)c(OC)c1	0	13	-24	-11%	-4.1
CCOC(=O)c1sc(=NC(=O)c2ccccc2)n(C)c1C	-3	2	/	-2%	0.0
CC1=NN(C2=NS(=O)(=O)c3ccccc32)C(C)(O)C1 (centres undefined)	/	12	/	/	-1.3
Cn1c(=O)c2c(nc(Sc3ccccc3N)n2C)n(C)c1=O	/	-21	/	/	1.3
C=CCn1c(C(C)(C)C)nc2ccccc21	9	19	/	1%	-1.2
CSc1nc2sc3c(c2c2nnnn12)CCCC3	10	-6	-33	-5%	0.7
O=C(C1=C[C@@H](c2ccc(Br)cc2)C[C@@H](OCCCCO)O1)N1CCN(Cc2ccccc2)CC1	-8	10	/	-2%	9.3
COc1ccccc1-c1nnc(SCCN2CCOCC2)n1-c1ccc(C)cc1	1	-4	-19	-4%	0.5
Cn1c(SCC(=O)Nc2ccc(Cl)cc2)nc(O)cc1=O	/	2	/	-3%	3.6
O=C(NC(=S)Nn1cnc2c(cnn2-c2ccccc2)c1=O)c1ccccc1	-2	-7	-27	7%	0.6
CCN(CC)c1ccc(N=Cc2c(O)n(-c3ccccc3)c(=O)[nH]c2=O)cc1	/	66	/	8%	-14
COc1cc(/C=N/NC(=O)CCn2nnc3ccccc32)ccc1O	-10	3	-30	-4%	-6.2
O=C(CNS(=O)(=O)/C=C/c1ccccc1)OC1CCOC1=O (centres undefined)	7	-4	/	8%	-1.6
CN(C)C(=O)CSc1nnc(CCNC(=O)OC(C)(C)C)o1	-2	13	-23	2%	3.0
CCOc1ccc(S(=O)(=O)N(CC)CC(=O)N2CCCC2)cc1	/	2	/	/	-1.9
CCOC(=O)NC(=O)CN1C(=O)NC2(CCc3ccccc32)C1=O (centres undefined)	/	-8	/	/	-3.1
COC(=O)c1cc2sccc2n1Cc1nc(-c2ccc(OC)cc2)oc1C	-7	-6	-52	4%	-1.9
Cc1cc(C)c(NC(=O)CSc2ccc(-c3ccccn3)nn2)c(C)c1	/	8	/	/	0.2
CCc1nc(C)cc(N)c1OCc1ccccc1	6	8	-8	-2%	1.3
Cc1cccc(C)c1OCc1cc(C(=O)NC2CCC2)no1	/	0	/	/	-0.9
Fc1ccc2c(c1)[C@H]1OCC[C@H]1[C@@H](c1ccco1)N2	4	-14	-27	-19%	/
O=C(Nc1nc(-c2cccnc2)cs1)c1ccc(S(=O)(=O)N2CCOCC2)cc1	-8	16	-48	4%	0.2
COc1cc(C(=O)Nc2ccc(S(=O)(=O)NC(C)C)cc2)cc(OC)c1OC	-2	2	0	-2%	0.1
Cc1noc(C)c1CCC(=O)N1CCCC(CCC(=O)NCc2ccc(F)c(F)c2)C1 (centres undefined)	6	0	/	3%	-0.7

Assay outcomes (PubChem)
